# Compound activity: PubChem, several laboratories
# PKD1 kinase inh = inhibitors of human PKD1 kinase, biochemical, fluorescence polarization. 200,000 compounds, 0.056% hits. Serine/threonine-protein kinase D1 (Homo sapiens), Q15139. inhibition, %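 (about 10 µM by stock and volumes)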. PKD1 kinase fluorescence polarization assay;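 active = inhibition of 50% or more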;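 also: controls were vehicle for no effect and a reference inhibitor for full effect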
# RGS16-Gao = modulators of RGS16 binding to Galphao, primary screen, biochemical, human proteins, multiplexed bead flow cytometry; bead-based flow cytometry RGS16-Galphao binding, fluorescence; actives lie on both sides; Regulator of G-protein signaling 16 (Homo sapiens) + Guanine nucleotide-binding protein …; AID 1441, 2008; 220,000 compounds, 0.38% hits; binding response (% of control), % at 10 µM;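 active = below 25% or above 175%, edge rows of some plates excepted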;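 also: Galphao activated by GDP with aluminum fluoride before binding; 100% = wells without compound and 0% = beads without RGS; some results beyond the cut were filed as inactive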
# Target sequence (O15492 whole entry, looked up): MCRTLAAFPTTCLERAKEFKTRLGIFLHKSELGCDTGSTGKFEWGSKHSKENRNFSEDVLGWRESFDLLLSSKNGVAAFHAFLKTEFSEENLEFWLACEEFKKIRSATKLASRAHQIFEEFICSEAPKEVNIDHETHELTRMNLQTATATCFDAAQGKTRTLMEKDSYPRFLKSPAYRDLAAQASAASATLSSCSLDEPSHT
# Target sequence (P09471 whole entry, looked up): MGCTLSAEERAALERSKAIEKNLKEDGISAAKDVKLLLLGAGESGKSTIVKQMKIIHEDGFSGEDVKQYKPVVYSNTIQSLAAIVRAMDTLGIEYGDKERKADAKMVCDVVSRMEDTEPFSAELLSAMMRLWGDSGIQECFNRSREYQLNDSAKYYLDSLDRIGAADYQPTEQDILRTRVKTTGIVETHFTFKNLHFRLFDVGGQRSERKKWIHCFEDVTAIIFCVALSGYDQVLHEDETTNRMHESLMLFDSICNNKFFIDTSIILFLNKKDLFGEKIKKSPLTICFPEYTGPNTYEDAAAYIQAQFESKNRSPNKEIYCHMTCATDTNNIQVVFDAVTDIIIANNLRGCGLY
# INS promoter inh = inhibitors of insulin promoter-driven GFP, primary screen, imaging, TRM-6 cells (human fetal islet line), eGFP reporter, cell count; reporter expression induced with tamoxifen; inhibition, % at 2 µM; 130,000 compounds, 0.9% hits;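 active = inhibition above the mean plus 3 SD, with well images judged a real hit on visual review, cut at about 60% in these data, passing the limit was not always enough; inconclusive = inhibition over the cutoff but images rejected on review; inactive = inhibition not above the cutoff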
# GALR2 agonist = GALR2 receptor agonists, primary screen, cell-based; Galanin receptor type 2 (Homo sapiens), O43603; GALR2-expressing cells, agonist activation read-out; activation, %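 (tested at 5 µM)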; 140,000 compounds, 0.48% hits; AID 803, 2007;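 active = above mean plus 3 SD of all compounds, about 5% in these data, not always enough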;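 also: 0% = vehicle buffer wells and 100% = reference agonist at full effect; tested in CHO reporter cells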
# Target sequence (O43603 whole entry, looked up): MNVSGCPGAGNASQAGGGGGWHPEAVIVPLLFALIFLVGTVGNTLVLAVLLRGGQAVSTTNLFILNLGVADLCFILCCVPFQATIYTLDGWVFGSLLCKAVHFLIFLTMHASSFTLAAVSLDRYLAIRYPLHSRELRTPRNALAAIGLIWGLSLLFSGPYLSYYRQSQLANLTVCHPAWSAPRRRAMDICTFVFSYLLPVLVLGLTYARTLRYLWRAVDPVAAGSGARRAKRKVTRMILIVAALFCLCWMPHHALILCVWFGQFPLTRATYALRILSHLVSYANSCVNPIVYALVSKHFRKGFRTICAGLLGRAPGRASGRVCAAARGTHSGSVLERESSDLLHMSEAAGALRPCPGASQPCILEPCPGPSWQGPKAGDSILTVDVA
# HSV augment = enhancers of HSV replication in host cells, fold increase, host cell viability | HSV replication augmentation in cells | maximum fold increase | 220,000 compounds, 0.005% hits | AID 1956, 2009;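 active = peak rise of 1.5-fold or more in the series; inconclusive = self-fluorescent or not available for retest; tested in PC3 cells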;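 also: first round at 10 µM; read as green reporter fluorescence; hits show the peak of a series up to 25 µM; 1 = signal of infected wells without compound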
# INS promoter inh cell count = recorded beside INS promoter inh, whose call it bears; normalized cell count, %; measured here: cell count, toxicity; reference of the scale not given here;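 cells exposed to compound for 48 h; stained nuclei by imaging scaled within each plate; lower means fewer cells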
# HSV augment primary fold = also measured in HSV augment; calls as there; fold increase; compound at 10 µM; measured here: primary screen fold increase 10 uM; tested in PC3 cells;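 GFP signal in the first replicate; 1 = infected wells without compound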
# Starred values were filed as active, the others as inactive; i = inactive; ? = inconclusive; . = not tested or not shown.
entry	structure	PKD1 kinase inh	RGS16-Gao	INS promoter inh	INS promoter inh cell count
1	O=C(Nc1cc(S(=O)(=O)N2CCOCC2)ccc1N1CCOCC1)c1cc(=O)[nH]c2ccccc12	-6	108	20	155
2	CCOC(=O)c1ccc(N2C(=O)CC(N3CCN(C(=O)c4ccco4)CC3)C2=O)cc1 (configuration not stated)	-6	61	-6	81
3	Cc1ccc(-c2nnc(SCC(=O)N3CCCC3)o2)cc1	-17	99	31	63
4	C[N+]1(CC#CC(O)(c2ccccc2)c2ccccc2)CCCC1	-7	104	-17	118
5	CC/C(=N\NC(=O)c1ccc(-c2ccccc2)cc1)C12CC3CC(CC(C3)C1)C2	-1	98	.	.
6	COc1ccccc1CNC(=O)CCC(=O)Nc1nnc(C)s1	-3	105	.	.
7	CCN(CC)C1=CC(=[N+]2CCCC2)CC(C)(C)C1	-4	104	43	110
8	O=S(=O)(Nc1ccccc1F)c1ccc2nsnc2c1	-6	110	-15	121
9	Cc1ccc(-n2c(C)cc(C(=S)N3CCOCC3)c2C)cc1C	3	97	39	110
10	CCOc1ccc(N(CC(=O)Nc2ccccc2C(=O)NCc2ccco2)S(C)(=O)=O)cc1	-4	103	3	109
11	COc1cc(-c2cc(C(=O)NCCc3ccc(S(N)(=O)=O)cc3)c3ccccc3n2)cc(OC)c1OC	.	98	.	.
12	Cc1c(C(=O)O)oc2c1C(=O)CC(C)(C)C2	-8	110	14	184

entry	GALR2 agonist	HSV augment	HSV augment primary fold
1	.	i	0.97
2	-1.6	i	0.96
3	-0.3	i	0.95
4	-2.9	i	0.92
5	-2.1	i	0.84
6	-1.2	i	1
7	-2.3	i	1.1
8	-1.4	i	0.8
9	-0.6	i	1.1
10	-3.6	i	1.1
11	.	i	1
12	.	i	1

# (more compounds)
entry	structure	PKD1 kinase inh	RGS16-Gao	INS promoter inh	INS promoter inh cell count
13	Cc1ccc2nsnc2c1S(=O)(=O)N(CCO)Cc1cc2cc3c(cc2[nH]c1=O)OCCO3	-14	98	15	102
14	CCOC(=O)Nc1ccc(C(=O)/C=C/c2ccccc2)cc1	.	100	.	.
15	Cc1occc1C(=O)Nc1ccccc1C(=O)O	8	104	6	95
16	S=c1[nH]nc2nnc3ccccc3n12	.	97	.	.
17	CCC(CC)C(=O)Nc1cccc(C(=O)N2CCCC2)c1	-2	104	22	56
18	O=C1C(=Cc2ccc(Br)o2)C(=O)c2ccccc21	-3	8.3*	-206	75
19	CCN(CC)c1ccc(C=Nc2ccccc2)c(O)c1	5	102	30	117
20	CC1(C)CNC(=O)c2sc(NC(=O)c3ccccc3)nc2C1	-8	105	25	104
21	COc1ccc(C2=NN(C(C#N)c3ccc(OC)cc3)C(c3ccccc3)C2)cc1 (configuration not stated)	-19	87	-10	75
22	COc1ccc(-c2csc(NC3OC(=O)c4c3ccc(OC)c4OC)n2)cc1OC (configuration not stated)	.	111	.	.
23	Cn1cc(C(=O)N2CCc3ccccc3C2)c(=O)c2cc(S(=O)(=O)N3CCOCC3)ccc21	-7	84	57	83
24	Cn1c(-c2cc(Br)ccc2O)n[nH]c1=S	0	90	.	.

entry	GALR2 agonist	HSV augment	HSV augment primary fold
13	-0.7	i	0.89
14	.	i	0.75
15	-2.3	i	0.96
16	.	i	0.92
17	0.1	i	1
18	-0.2	i	1.1
19	-0.5	i	1.1
20	.	i	0.99
21	-2.1	i	1
22	.	i	0.72
23	.	.	.
24	-1.9	i	0.94

# Other results follow.
entry	structure	PKD1 kinase inh	RGS16-Gao	INS promoter inh	INS promoter inh cell count
25	O=C(c1ccccc1Oc1ccccc1)N1CCN(c2ccccc2F)CC1	2	97	i	34
26	CCCCn1c(=O)n(CC(=O)NCc2ccc(C)cc2)c(=O)c2c1nc(CO)n2CCC	-7	101	.	.
27	Cc1occc1C(=O)Nc1ccc(Br)cc1F	-3	41	17	121
28	CCCc1nn(-c2cc(Cl)ccc2OC)c2c1C(=O)CC(C)(C)C2	-5	105	.	.
29	CCOc1ccc(/C(O)=C2/C(=O)C(=O)N(CC3CCCO3)C2c2ccc(C)o2)cc1 (configuration not stated)	4	103	27	109
30	CN(Cc1ccccc1)S(=O)(=O)c1ccc(Cl)c(C(=O)O)c1	2	98	.	.
31	C/C(=N\NC(=O)CC1N=C(Cc2ccccc2)NNC1=O)c1ccncc1 (configuration not stated)	.	98	.	.
32	C/C(=N\N=C(N)N)c1cccc([N+](=O)[O-])c1	-6	109	.	.
33	CC(=O)N(c1nc(CCl)cs1)c1cccc(C)c1C	6	102	.	.
34	COc1cc(C(=O)N(Cc2ccc(N(C)C)cc2)C2CCS(=O)(=O)C2)cc(OC)c1OC (configuration not stated)	-13	103	.	.
35	CCC(NC(=O)C1CCC1)c1ccccc1 (configuration not stated)	-5	74	-39	89
36	Cc1ccc(NS(=O)(=O)c2ccc(CCC(=O)NC3CC3)cc2)cc1	-3	105	4	90

entry	GALR2 agonist	HSV augment	HSV augment primary fold
25	-2.0	i	0.94
26	-1.9	i	1
27	0.1	i	0.94
28	-0.9	i	0.65
29	-1.2	i	1.1
30	.	i	1.1
31	.	i	1.1
32	-2.0	i	0.9
33	.	i	0.89
34	0.5	.	.
35	-0.2	i	0.89
36	-4.0	i	1.1

# Carrying on:
entry	structure	PKD1 kinase inh	RGS16-Gao	INS promoter inh	INS promoter inh cell count
37	CC(=O)/C(CN1CCCCC1)=N\O	1	103	50	101
38	O=C(NC1CCCCC1)c1ccc(CS(=O)(=O)Cc2ccccc2F)o1	-4	103	-9	199
39	CC(Sc1nc(-c2ccccc2)cc(=O)[nH]1)C(=O)O (configuration not stated)	-6	99	.	.
40	CCOC(=O)Cc1csc(NC(=O)/C=C/c2cccc(Br)c2)n1	13	49	0	111
41	CC(C)(C)OC(=O)NCCCCCNC(=O)c1[nH]cnc1C(=O)N[C@@H](Cc1ccccc1)C(=O)OCc1ccccc1	-4	102	.	.
42	COC(=O)c1ccc(NC(=O)Nc2ccc3c(c2)nc(C)n3C)cc1	3	113	57	144
43	CCCN1CCN(C(=O)CCCn2c(C)c3cnn(-c4ccccc4)c(=O)c3c2C)CC1	-5	98	.	.
44	CC(C)n1nc(C(=O)NCc2ccc3c(c2)OCO3)c2ccccc2c1=O	-1	95	.	.
45	CCCN(CCC)S(=O)(=O)c1ccc(NC(=O)C2CCCO2)cc1 (configuration not stated)	-6	109	-50	131
46	CCC1(CC)NC(=O)N(Cc2nc3ccccc3s2)C1=O	4	106	.	.
47	CC(=O)NCCc1cc2ccc(C)cc2[nH]c1=O	9	105	18	101
48	CCCCc1cc(=O)oc2cc(OCc3cc(OC)c(OC)c(OC)c3)c(Cl)cc12	-6	98	43	100

entry	GALR2 agonist	HSV augment	HSV augment primary fold
37	0.4	i	0.95
38	-1.5	i	0.95
39	-0.7	i	1
40	.	i	0.93
41	.	i	0.76
42	.	i	1
43	.	i	0.96
44	.	i	0.9
45	-2.1	i	0.81
46	.	i	0.91
47	-0.4	.	.
48	0.8	?	.

# Next section:
entry	structure	PKD1 kinase inh	RGS16-Gao	INS promoter inh	INS promoter inh cell count
49	COc1ccc(F)cc1S(=O)(=O)Nc1ccc2c(c1)OCCO2	-10	104	.	.
50	COC(=O)c1[nH]c2ccc(Cl)cc2c1NC(=O)CCN1CCN(C2CCCCC2)CC1	-16	105	.	.
51	Cc1cc(C)nc(SCc2cc(=O)c(OC(=O)c3cccc([N+](=O)[O-])c3)co2)n1	-1	97	3	139
52	CN(C)S(=O)(=O)c1ccc(C(=O)Nc2ccc(CCC(=O)N3CCCC3)cc2)cc1	-3	97	-449	48
53	N#C/C(=N\Nc1ccc(S(=O)(=O)N2CCCCCC2)cc1)C(N)=S	0	100	.	.
54	CCn1c(=O)cc(SCC(=O)N2CCN(Cc3ccc4c(c3)OCO4)CC2)c2ccccc21	4	104	.	.
55	Cn1c2c(c(=O)n(C)c1=O)C(CC(=O)Nc1ccccc1F)C(=O)N2 (configuration not stated)	.	97	.	.
56	CCCCCCC(C)n1[nH]c(=O)c2c(C)cc(C)nc21 (configuration not stated)	.	101	.	.
57	CCCCOc1ccc(C(=O)O)cc1	1	104	56	115
58	COc1ccccc1N(CC(=O)NC1CCCCC1)C(=O)c1csnn1	-8	100	13	125
59	O=C(NCc1ccco1)C(=O)NCC1OCCN1S(=O)(=O)c1ccccc1 (configuration not stated)	-8	104	-17	117
60	Cc1ccc(-n2c(=O)[nH]cc(C(=O)N3CCc4ccccc43)c2=O)cc1C	-11	101	.	.

entry	GALR2 agonist	HSV augment	HSV augment primary fold
49	-1.2	i	1
50	0.2	i	0.87
51	-1.3	i	0.9
52	-2.8	i	0.89
53	.	i	0.94
54	0.4	i	0.88
55	.	i	1
56	.	i	0.82
57	-0.5	i	0.88
58	-2.8	i	0.82
59	-0.5	i	0.86
60	-1.9	i	0.89

# Following part.
entry	structure	PKD1 kinase inh	RGS16-Gao	INS promoter inh	INS promoter inh cell count
61	COc1ccc(-n2c(=O)/c(=C\c3cccs3)s/c2=C(/C#N)C(=O)N2CCN(C)CC2)cc1	-6	104	.	.
62	C/C(N)=C(/C#N)C(=O)COC(=O)CC12CC3CC(CC(C3)C1)C2	1	101	23	44
63	COc1ccccc1N=c1oc2cc(O)ccc2cc1C(=O)NCC1CCCO1 (configuration not stated)	-8	99	17	120
64	O=C(NNc1c2ccccc2nc2ccccc12)C(O)c1ccccc1 (configuration not stated)	.	102	.	.
65	N/C(Cc1ccc(Cl)cc1)=N\OC(=O)c1cccc2ccccc12	-7	69	-57	49
66	C(=N\NC(=Nc1ccccc1)c1ccccn1)/c1ccccn1	-8	54	-14	53
67	Cc1cc(=O)n2nc(N3CCCC(C(=O)NCc4ccc5c(c4)OCO5)C3)sc2n1 (configuration not stated)	-12	97	3	86
68	COC(=O)c1ccc(Cl)c(NS(=O)(=O)c2ccc3c(c2)OCCO3)c1	4	96	5	72
69	NC(=O)c1c(NC(=O)c2cnccn2)sc2c1CCCC2	-2	101	.	.
70	CN(C)c1ccc(C(=O)c2ccc(N(C)C)c(N)c2)cc1N	-8	100	10	126
71	CC1=NN(c2cccc(C(=O)O)c2)C(=O)/C1=C\C=C/c1ccccc1	-3	99	-17	74
72	CC1CCCN(S(=O)(=O)c2ccc(Br)s2)C1 (configuration not stated)	-6	94	-44	98

entry	GALR2 agonist	HSV augment	HSV augment primary fold
61	.	i	1.1
62	-0.9	i	0.99
63	29*	i	0.94
64	.	i	1.1
65	0.6	i	0.75
66	-1.7	i	1.1
67	-2.1	i	1
68	-0.4	i	0.87
69	.	i	0.92
70	-1.4	i	0.88
71	.	i	0.67
72	-0.7	i	0.91

# Three of the entries above in order of their number in GALR2 agonist, high to low.
No. | smiles | PKD1 kinase inh | RGS16-Gao | GALR2 agonist | HSV augment primary fold
68 | COC(=O)c1ccc(Cl)c(NS(=O)(=O)c2ccc3c(c2)OCCO3)c1 | 4 | 96 | -0.4 | 0.87
72 | CC1CCCN(S(=O)(=O)c2ccc(Br)s2)C1 (configuration not stated) | -6 | 94 | -0.7 | 0.91
67 | Cc1cc(=O)n2nc(N3CCCC(C(=O)NCc4ccc5c(c4)OCO5)C3)sc2n1 (configuration not stated) | -12 | 97 | -2.1 | 1

# (listing goes on)
entry	structure	PKD1 kinase inh	RGS16-Gao	INS promoter inh	INS promoter inh cell count
73	c1ccc(SCCOCCn2cncn2)cc1	1	102	44	121
74	CCOC(=O)N1CCN(c2c(N3CCN(c4ccccn4)CC3)c(=O)c2=O)CC1	-7	101	0	90
75	NS(=O)(=O)c1ccc(NC(=S)N2CCN(c3ccccc3Cl)CC2)cc1	-1	166	5	53
76	O=C(COC(=O)/C=C/c1ccc(F)cc1)Nc1cc(C(F)(F)F)ccc1N1CCOCC1	14	98	-7	97
77	Brc1cc2c(cc1COc1ccc(-c3nn[nH]n3)cc1)OCO2	-8	101	.	.
78	CCOP(=O)(Cc1ccc(C(C)(C)CC(C)=O)o1)OCC	.	113	.	.
79	COCCCNC(=S)N(Cc1ccccc1)Cc1nc2ccccc2c(=O)[nH]1	-5	102	-46	112
80	CC(C)C(=O)NNS(=O)(=O)c1ccccc1	-9	102	.	.

entry	GALR2 agonist	HSV augment	HSV augment primary fold
73	-1.9	i	0.95
74	-0.6	i	0.9
75	-0.6	i	0.93
76	-1.4	i	0.71
77	-1.8	i	0.75
78	.	i	1.1
79	-0.8	.	.
80	.	i	0.91

# Hits appear at their usual frequency (roughly 1.3% active in at least one column).
